# PV pol inh: poliovirus RdRp elongation inhibitors, primary screen, biochemical, fluorescence polarization, total intensity; Genome polyprotein (Poliovirus type 1 (strain Mahoney)), P03300; poliovirus polymerase elongation; active compounds read low; % elongation, % (compound at 16.7 µg/mL); 150,000 tested, 0.66% active; AID 588519, 2011; in the data active = % elongation below about 90%; also: some results filed as inactive read as strong as hits
# Target sequence (P03300 1749-2209 limits assumed): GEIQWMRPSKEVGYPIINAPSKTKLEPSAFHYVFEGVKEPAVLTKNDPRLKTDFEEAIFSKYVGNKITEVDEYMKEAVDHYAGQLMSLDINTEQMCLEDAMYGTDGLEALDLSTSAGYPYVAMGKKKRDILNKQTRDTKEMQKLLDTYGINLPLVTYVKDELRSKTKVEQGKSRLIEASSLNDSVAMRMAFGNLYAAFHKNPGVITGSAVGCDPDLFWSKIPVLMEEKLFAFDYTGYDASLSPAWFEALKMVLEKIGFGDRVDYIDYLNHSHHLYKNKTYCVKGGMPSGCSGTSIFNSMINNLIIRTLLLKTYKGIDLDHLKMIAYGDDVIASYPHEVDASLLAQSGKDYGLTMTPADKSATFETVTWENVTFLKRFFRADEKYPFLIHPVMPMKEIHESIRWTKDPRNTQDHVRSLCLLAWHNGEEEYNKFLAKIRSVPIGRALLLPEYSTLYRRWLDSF
# Mtb MenB inh: M. tuberculosis MenB inhibitors, primary screen, biochemical, absorbance; MenB enzyme assay, absorbance read-out; some hits fall short of the stated cut; 1,4-dihydroxy-2-naphthoyl-CoA synthase (Mycobacterium tuberculosis (strain ATCC 25618 / …; inhibition, %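 (about 12 µg/mL by stock and volumes)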; 100,000 tested, 0.43% active; AID 540299, 2011;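 active = mean of two replicates above 30%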;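 also: 0% = no compound and 100% = wells with inactive enzyme; the first replicate is given; strong numbers were not always called active; inactives centre near -10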
# Mtb MbtI inh: MbtI salicylate synthase inhibitors, primary screen, biochemical, fluorescence intensity | AID 493033, 2011 | 100,000 tested, 0.89% active | P9WFX0 | inhibition, %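 (about 17 µg/mL by stock and volumes)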 | purified MbtI enzyme, fluorescence intensity read-out;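 active = above 50% in both replicates, above 80% if mildly self-fluorescent; inactive = the rest, strongly fluorescent compounds included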;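 also: 0% = mean of negative and 100% = mean of positive controls; one replicate is shown; some compounds called inactive have numbers as strong as hits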
# Target sequence (P9WFX0 whole entry, looked up): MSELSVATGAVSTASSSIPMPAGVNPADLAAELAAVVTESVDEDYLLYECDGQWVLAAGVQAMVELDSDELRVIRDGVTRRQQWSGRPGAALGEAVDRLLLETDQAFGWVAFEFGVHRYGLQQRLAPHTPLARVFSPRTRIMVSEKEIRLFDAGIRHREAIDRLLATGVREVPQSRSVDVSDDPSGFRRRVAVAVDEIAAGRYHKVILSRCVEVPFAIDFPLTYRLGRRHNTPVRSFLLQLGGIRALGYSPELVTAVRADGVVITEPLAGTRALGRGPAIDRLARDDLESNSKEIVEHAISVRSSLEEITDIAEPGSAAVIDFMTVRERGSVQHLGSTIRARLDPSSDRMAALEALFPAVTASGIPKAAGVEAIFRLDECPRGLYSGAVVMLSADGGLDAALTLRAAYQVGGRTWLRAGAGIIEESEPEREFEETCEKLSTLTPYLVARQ
# PV pol inh intensity: further read-out of PV pol inh, marked with its call; % elongation; measured here: total intensity read-out; formula for this scale not given here;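 total fluorescence in place of polarization; lower means less elongation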
# Numbers without * were called inactive; nt = no result given; & = joins results of further samples.
Compound,PV pol inh,PV pol inh intensity,Mtb MenB inh,Mtb MbtI inh
COc1ccccc1N=C(N)Nc1cccc(C(F)(F)F)c1,100.0,93.0,-32.8,1.3
N=C1C(c2nc3ccccc3s2)=C(O)CN1c1ccccc1,106.0,107.0,-13.3,nt
CC1CCCCC1NC(=O)Cn1cnc2ccccc2c1=O (stereo not given),104.0,107.0,14.6,-2.1
CN(Cc1ccccc1)C(=O)CSc1c2c(nc3ccccc13)CCC2,104.0,102.0,-18.8,9.4
COc1ccc(CCn2c(=S)[nH]c3nccnc3c2=O)cc1OC,102.0,101.0,-15.9,3.8
Cc1cc(C)c(OCCCNC(C)(C)C)c(Cl)c1,97.0,97.0,-2.8,15.3
N#Cc1c(N)sc2c1CCN(c1nc(CN3CCOCC3)nc3scc(-c4cccs4)c13)C2,131.0,150.0,-28.8,2.2
Cc1nc2ccccc2n1CC(=O)OCc1ccc(Br)cc1,102.0,109.0,nt,-4.9
O=C(CCc1nc2ccccc2s1)OC1CCCCC1=O (stereo not given),97.0,96.0,-6.8,-0.1
COC(=O)C(NC(=O)Nc1ccc(C(C)(C)C)cc1)C(C)C (stereo not given),101.0,97.0,-36.6,-2.0
CCOC(=O)c1c(SC)nc2ccc(Cl)cc2c1N1CCOCC1,104.0,98.0,7.7,-0.6
COc1cccc(C(=O)Cn2c(=O)n(CCCS(=O)(=O)C3CCCCC3)c(=O)c3ccccc32)c1,104.0,109.0,-27.6,3.4
N#CC1=C2CCCCC2C(c2ccco2)C(C#N)(C#N)C1=O (stereo not given),62.0,226.0,1.9,nt
NC(=O)Cc1cc(=O)oc2cc(O)ccc12,99.0,101.0,-23.5,-336.8
O=C(O)c1nc(-c2ccccc2)n(-c2cccc(C(F)(F)F)c2)n1,101.0,98.0,nt,-0.6
CC1CCCCN1CC(=O)Nc1cc(C(C)(C)C)nn1-c1ccccc1 (stereo not given),98.0,101.0,7.5,0.2
CCN(CC)CCN(C)C1C2CC3CC(C2)CC1C3 (stereo not given),99.0,102.0,-16.6,-20.3
O=C1CC(NC(=O)N2CCCc3ccccc32)CN1c1ccccc1 (stereo not given),104.0,103.0,-26.3,-8.0
CC(C)CCNC(=O)c1cn(-c2ccccc2)nc1-c1cccs1,99.0,102.0,nt,4.5
O=c1oc2ccccc2cc1-c1cn2c(n1)sc1ccccc12,98.0,103.0,-9.9,13.2
CC(=O)OCCSc1nc(N(C)C)nc(N(C)C)n1,101.0,104.0,-14.8,-15.4
CSCCNC(C)=O,100.0,101.0,-36.0,-4.3
Cc1ccc2cnn(CC(=O)NCCCN3CCCC3=O)c2c1,102.0,98.0,2.6,20.9
CC(O)(C#Cc1ccccc1)c1ccc(N2CCCCC2)c(F)c1 (stereo not given),106.0,108.0,-24.7,nt
CSCCC1NC(=O)NC1=O (stereo not given),105.0,100.0,-6.0,-8.4
CC1CCCCN1S(=O)(=O)Cc1ccccc1 (stereo not given),106.0,99.0,10.9,nt
CCCCN1COc2c(c3c(C(=O)OCC)c(C)oc3c3ccccc23)C1,100.0,101.0,-20.7,17.4
O=C(OCC(=O)N1CCN(C(=O)c2ccco2)CC1)c1ccccc1,108.0,109.0,23.1,-5.5
O=C(COC(=O)Cc1coc2ccc3ccccc3c12)Nc1nnc(-c2ccccc2)o1,101.0,105.0,-80.6,-29.2
CCOc1ccc(C(=O)N2C(C)CCCC2C)cc1OCC (stereo not given),104.0,100.0,-14.3,-7.3
O=C1c2ccc(-c3nc4ccccc4c(=O)o3)cc2C(=O)N1Cc1ccc(Cl)cc1,100.0,102.0,-10.6,-7.7
C=CCn1c(CC(=O)Nc2ccccc2Cl)nnc1SCC(=O)Nc1nccs1,101.0,102.0,-21.7,1.2
CC1=C(c2ccc(C)cc2)S(=O)(=O)NC1=NCc1ccccn1,104.0,97.0,-12.9,5.8
CC(C)(C)NC(=O)CCCN1C(=O)c2ccccc2C1=O,100.0,99.0,-32.2,-5.2
O=C(OCC(=O)N1CCCCC1)c1ccccc1OCCOc1ccccc1,99.0,92.0,-36.6,-1.6
COC(=O)c1ccc(CNC(=O)C(NC(C)=O)C(C)C)cc1 (stereo not given),106.0,109.0,-10.0,2.2
COc1cccc(NC(=O)CSc2ncccn2)c1,104.0,103.0,-22.7,-11.8
CC(=O)Oc1ccc2c(c1)NC1(OC(C)=O)C(=O)c3ccccc3C21OC(C)=O (stereo not given),103.0,113.0,6.5,nt
O=C1/C(=C/c2ccccc2F)Cc2ccccc21,102.0,105.0,-5.8,-1.2
COc1ccc(NS(=O)(=O)c2cccc3cccnc23)c(OC)c1,104.0,104.0,-18.0,-8.1
CCNC(=O)[C@H]1O[C@@H](n2cnc3c(N)ncnc32)C(O)[C@H]1O (stereo not given in full),101.0,101.0,nt,-22.6
CN1CCC(O)(c2ccccc2)C(C(=O)c2ccccc2)C1 (stereo not given),100.0,103.0,-4.3,nt
CCOc1ccccc1CNC(=O)CCc1cn(CC)c2ccccc12,103.0,106.0,-18.1,-8.5
COc1ccc(-c2cc(=Nc3ccc(OC)c(OC)c3)c3ccccc3o2)cc1,102.0,104.0,-6.5,2.0
O=C(O)CSCC(=O)N1CCn2c3c(c4cc(C5CCCCC5)ccc42)CCCC31 (stereo not given),101.0,106.0,-10.5,2.1
OCCNc1ncnc2scc(-c3ccc(F)cc3)c12,103.0,106.0,-2.1,18.1
O=C(CNC(=O)c1ccc(Br)cc1)NC1CC1,107.0,105.0,-4.6,19.3
Cc1sc2ncnc(NC(C)C(=O)O)c2c1C (stereo not given),102.0,102.0,-15.2,8.9
CCCCc1ccc(NC(=O)C2CC(=O)N(C)C2)cc1 (stereo not given),101.0,100.0,1.6,-10.1
S=c1sc2ccccc2n1CN1CCOCC1,99.0,99.0,23.7,89.9*

# (further entries)
Compound,PV pol inh,PV pol inh intensity,Mtb MenB inh,Mtb MbtI inh
O=C(Nc1ccccc1C(=O)N1CCCC1)c1cccc(I)c1,104.0,104.0,-0.6,nt
COc1cccc(-c2noc(-c3cc(OC)cc(OC)c3)n2)c1,98.0,101.0,-20.1,4.6
COc1cccc(N=C2NN=C(c3ccc(S(=O)(=O)N4CCCCC4)cc3)CS2)c1,97.0,102.0,-27.4,-5.6
COC(=O)c1cc2sccc2n1CCC#N,104.0,102.0,-10.7,20.4
COC(=O)Cc1c(C(=O)OC)nnn1-c1ccc(Br)cc1,103.0,103.0,10.2,5.1
CN(C)C(=O)CSc1nnc(-c2ccco2)o1,109.0,113.0,-19.2,nt
CC(=NC(C)C)C1=C(O)C(C)OC1=O (stereo not given),103.0,107.0,nt,-4.0
CCc1cccc(CC)c1NC(=O)c1cccs1,105.0,114.0,-3.6,nt
COc1ccc(N(C)S(=O)(=O)c2ccc3c(c2)CC(C)N3C(=O)C2CC2)c(OC)c1 (stereo not given),102.0,102.0,-20.5,-25.8
COc1ccccc1NC(=O)C(C)OC(=O)c1ccc(O)cc1 (stereo not given),102.0,112.0,-26.8,12.4
CC(N=C1CCCc2ccccc2N1)C(=O)O (stereo not given),102.0,104.0,5.7,2.1
Cc1nn(C)cc1CN(C)C(=O)c1cc2n(n1)C(C(F)(F)F)CC(c1ccccc1)N2 (stereo not given),102.0,102.0,-7.8,-7.1
COc1cccc(C(=O)N2CCCC2)c1,106.0,103.0,-27.7,-5.0
Cc1nc2sccn2c(=O)c1S(=O)(=O)N1CCCC1,108.0,109.0,-0.9,-3.0
CCCC(NC(=O)c1ccco1)C(=O)O (stereo not given),101.0,108.0,-5.3,nt
C/C(N)=C(/C#N)C(=O)Cn1nnc(-c2ccccc2)n1,103.0,105.0,5.2,7.5

# Exported with values under each structure: entries from further up.
# Fields – PV pol inh | PV pol inh intensity | Mtb MenB inh | Mtb MbtI inh
Cc1nc2sccn2c(=O)c1S(=O)(=O)N1CCCC1
  108.0 | 109.0 | -0.9 | -3.0
C/C(N)=C(/C#N)C(=O)Cn1nnc(-c2ccccc2)n1
  103.0 | 105.0 | 5.2 | 7.5
COc1ccccc1NC(=O)C(C)OC(=O)c1ccc(O)cc1 (stereo not given)
  102.0 | 112.0 | -26.8 | 12.4
COc1ccc(N(C)S(=O)(=O)c2ccc3c(c2)CC(C)N3C(=O)C2CC2)c(OC)c1 (stereo not given)
  102.0 | 102.0 | -20.5 | -25.8

# (further entries)
Compound,PV pol inh,PV pol inh intensity,Mtb MenB inh,Mtb MbtI inh
COc1cc2c(cc1NC(=O)CSCc1nc(N)nc(Nc3ccccc3C)n1)oc1ccccc12,100.0,99.0,-34.3,53.7
CCN(CC)c1ccc(N=CN2CCOCC2)cc1,138.0,148.0,-23.0,-0.9
COc1cc(/C=C/C(=O)O)cc(S(=O)(=O)N2CCOCC2)c1OC,103.0,101.0,-11.6,10.7
CC(NC(=O)CN1CCc2ccccc21)c1ccccc1 (stereo not given),106.0,98.0,nt,-1.2
CN(C(=O)COC(=O)c1ccccc1O)C1CCCCC1,104.0,98.0,nt,-19.5
COc1ccc(/C=C2\Cc3ccccc3C2=O)cc1O,103.0,103.0,-113.1,11.2
CC(=O)Nc1nnc(S(N)(=O)=O)s1,101.0&100.0,105.0&98.0,5.2&12.9,-2.9&-2.3
CCCCCn1c2ccccc2c2nc3ccccc3nc21,100.0,101.0,-0.7,-1.0
Cc1cccc(-n2ncc(C(=O)N3CCC(C(N)=O)CC3)c2-n2cccc2)c1,101.0,103.0,-5.5,-9.2
Cc1cnc(C(=O)Nc2ccccc2-c2nnn(CC(=O)NC3CCCC3)n2)cn1,104.0,108.0,-9.3,nt
S=c1[nH]nc(Cc2ccccc2)o1,97.0,100.0,-7.7,11.5&12.0
CCC1(C)NC(=O)N(/N=C/c2cc(Br)ccc2OC)C1=O (stereo not given),106.0,109.0,-6.7,-18.1
C/C=C1\NC(=S)N(Cc2ccccc2)C1=O,105.0,100.0,-14.4,20.1
CCC(CC)NC(=O)Nc1ccc(F)cc1F,105.0,103.0,-7.3,-24.4
CCCc1cc(=O)[nH]c(=S)[nH]1,104.0&100.0&100.0,100.0&103.0&99.0,-3.9&-3.5&-5.4,31.3&8.1&-5.7
COC(=O)c1c(C)oc2ccc(N(C(=O)Oc3ccccc3)S(=O)(=O)c3ccc(C)cc3)cc12,104.0,99.0,9.2,10.7
CCN1C(=O)C(O)(CC(=O)c2ccc(OC)c(OC)c2)c2ccccc21 (stereo not given),100.0,99.0,-54.2,-1.8
O=C(COc1ccccc1)OCC(=O)C12CC3CC(CC(C3)C1)C2,102.0,107.0,nt,-14.6
N#CCCn1cc(/C=C/C(=O)OCC(=O)c2ccc(Cl)cc2)c(-c2cc3ccccc3o2)n1,109.0,111.0,-8.0,132.0
Cc1cc2ccccn2c1C(=O)c1cccc(S(=O)(=O)N(C)C)c1,102.0,107.0,nt,-8.0
CCSc1nnc(NC(=O)c2cccn(OCc3cccc(Cl)c3)c2=O)s1,102.0,108.0,4.4,0.2
CCOc1ccc(NC(=O)c2cc3n(n2)CCCN(Cc2ccccc2)C3=O)cc1,100.0,103.0,-17.1,-13.0
O=C(NN=C1C2CC3CC(C2)CC1C3)c1ccncc1,100.0,103.0,3.8,5.2
O=C(NCc1ccco1)c1ccc(CS(=O)(=O)c2ccccc2)cc1,107.0,101.0,-49.9,0.4
O=C(O)c1cc(=O)[nH]c2c(C(F)(F)F)cccc12,108.0,107.0,-12.3,-10.7
c1ccc2c3c(cc(N4CCOCC4)c2c1)OC1(N2CCOCC2)CCCCC1O3 (stereo not given),98.0,101.0,11.1,-312.0
Cc1cc(-c2ccccc2N)nc2ccccc12,101.0,103.0,nt,-3.6
Cc1ccc(C2NCCS2)cc1 (stereo not given),103.0,107.0,-85.3,9.7
O=C(N1CCN(c2ccccc2F)CC1)N1c2ccccc2Sc2ccccc21,102.0,100.0,-3.3,-6.7
CCn1c(=O)n(-c2ccccc2)c(=O)c2c1c1cc(OC)ccc1n2C,104.0,102.0,7.4,-86.2
COc1ccc(-c2nn(-c3ccccc3)cc2CC(=O)O)cc1,97.0,90.0,-5.0,-79.8
COC(=O)c1c(C)[nH]c(C(=O)CN(C)CC(=O)Nc2c(C)cc(C)cc2C)c1C,108.0,111.0,-13.8,53.2
Cc1cc(C)cc(NS(=O)(=O)c2ccc3c(c2)CC(=O)N3)c1,101.0,104.0,-1.6,0.1
C=CCn1c(Sc2ncnc3c2cnn3-c2ccccc2)nnc1-c1ccncc1,103.0,107.0,8.6,-1.3
N#CCCN(/N=C/c1ccc(-c2ccc(Br)cc2)o1)C1=NS(=O)(=O)c2ccccc21,101.0,102.0,-31.6,-7.8

# Reformatted: results already given
COc1ccc(-c2nn(-c3ccccc3)cc2CC(=O)O)cc1
  PV pol inh: 97.0 | PV pol inh intensity: 90.0 | Mtb MenB inh: -5.0 | Mtb MbtI inh: -79.8
COC(=O)c1c(C)[nH]c(C(=O)CN(C)CC(=O)Nc2c(C)cc(C)cc2C)c1C
  PV pol inh: 108.0 | PV pol inh intensity: 111.0 | Mtb MenB inh: -13.8 | Mtb MbtI inh: 53.2
